# PrP 5UTR inh = inhibition of PrP 5' UTR reporter expression | hit rate 0.35% among 340,000 | cell-based PrP 5' UTR mRNA reporter, plate reader | inhibition, % (test concentration not listed);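 active = every replicate at 50% or more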;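 note: 0 = median of the neutral control wells; tested in H4 reporter cells; numbers are from one replicate; inactives centre near -14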
# Autofluor counter = compound fluorescence in toxin protease inhibitor counterscreen; compound autofluorescence counterscreen, microsphere flow cytometry; active compounds read high; fluorescence intensity (test concentration not listed); hit rate 3.1% among 360,000; AID 624483;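 active = at least 3 SD above the mean of all compounds, about 16000 in these data; inconclusive = too few beads counted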;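 note: 100 nL of 1 mM stock went into each well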
# ugtP null kill = growth inhibition of ugtP-null S. aureus, primary screen, RN4220 ugtP deletion, OD600; 16 h; some inactives read as strong as hits; growth inhibition, % (test concentration not listed); hit rate 0.54% among 330,000; AID 1259309, 2017;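 active = z-score under -3 and OD600 up to 0.15 on both plates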;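 note: plate controls were untreated wells for no effect and antibiotic for full effect; wells of about 80 µL received 100 nL stock; the first replicate is given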
# BJeLR lethal = MLPCN primary cell-based screen for lethality selective to Ras in HRASV12 cells | BJeLR (HRASV12) viability, CellTiter-Glo ATP luminescence, 48 h; reference of the scale not given here | inhibition, % (concentration not given with the values) | hit rate 0.17% among 300,000 | AID 1554, 2009;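 active = replicate mean above 50%; inconclusive = above 50% but judged a plate artefact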;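 note: 50 nL library stock added to about 25 µL; numbers are from one replicate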
# Mtb hypoxia rep = PubChem AID 1159583 | M. tuberculosis hypoxia-regulated fluorescent reporter, fluorescence | fluorescence inhibition, % (test concentration not listed) | hit rate 0.1% among 300,000;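 active = 35 to 45% if threefold the growth effect, above 45% if 1.5-fold the growth effect; inactive = the rest, general growth blockers included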;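 note: wells of about 50 µL received 100 nL stock; 0% = vehicle wells and 100% = reference inhibitor wells; whole bacteria with a GFP reporter of the hypoxia response; strong numbers were not always called active; many hits fall short of the cut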
# Sa RN4220 lethal = growth inhibition of S. aureus RN4220, primary screen, OD600. 16 h. inhibition, % (test concentration not listed). hit rate 0.33% among 330,000. AID 1259311, 2017;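 active = z-score of -3 or lower and OD600 up to 0.18 on both plates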;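 note: plate controls were untreated cells for no effect and reference antibiotic for full effect; stock transfer was 100 nL into about 80 µL; one replicate is shown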
# Mtb hypoxia rep growth = also measured in Mtb hypoxia rep; calls as there; growth inhibition, %; measured here: M. tuberculosis growth (absorbance);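 0% = vehicle and 100% = reference antibiotic; read after six days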
# Numbers without * were called inactive; ? = inconclusive; / = not tested or not shown.
SMILES,PrP 5UTR inh,Autofluor counter,ugtP null kill,BJeLR lethal,Mtb hypoxia rep,Mtb hypoxia rep growth,Sa RN4220 lethal
COc1cc(-c2nnc(SCC3(c4ccccc4)OCCO3)o2)cc(OC)c1OC,-4,2945,-4,5,3,-5,-0.4
O=C(c1ccc(F)cc1)N1CCN(C(=O)c2ccc([N+](=O)[O-])cc2)CC1,-3,3309,-1,-3,6,8,3.8
N=C1C(c2nc3ccccc3[nH]2)=C(O)CN1c1ccc(CC(=O)O)cc1,-20,16049,-6,1,4,7,1.5
O=S1(=O)CCC(n2ncc3c2/C(=C/c2ccccc2)CC3)C1 (centres undefined),-11,4665,-4,6,17,2,7.4
NNC(=O)CSc1nnnn1-c1ccccc1,1,4602,1,-4,4,-2,0.4
CN(C(=O)c1ccc(Cl)c([N+](=O)[O-])c1)C1(C)CCS(=O)(=O)C1 (centres undefined),-15,5424,7,0,2,6,3.5
COc1ccc(OC)c(C(O)c2nc3ccccc3n2C)c1 (centres undefined),-11,3690,6,-6,10,6,5.6
O=C1C2CCN(CC2)C1Cc1ccc2ccccc2c1O (centres undefined),/,/,0,/,9,10,2.9
FC(F)(F)c1cccc(-c2nc(-c3ccncc3)no2)c1,-50,3492,14,2,11,0,3.5
CC[n+]1c(/C=C/Nc2ccccc2)sc2ccccc21,-1,2616,-7,11,/,/,7.6
CN(Cc1nc(-c2ccccc2)no1)C1CCOCC1,-51,4303,1,16,18,6,2.1
COc1ccc(C(=O)NNC2=CC(=O)CC(C)(C)C2)cc1OC,-25,2105,5,7,2,0,1.6
CN(C)S(=O)(=O)c1ccc(C(=O)NCC2(N3CCCCC3)CCCCC2)cc1,-23,6034,2,4,-4,16,1.1
CCCC/C(O)=C1\C(=O)CC(C)(C)CC1=Nc1ccc(N)cc1,-43,4472,5,1,3,9,6.1
Cc1cccc(Cc2cnc(NC(=O)C3=NCCN3)s2)c1,-10,4229,1,-7,0,2,4.5
CC(=O)Nc1ccc(NS(=O)(=O)c2cccc3ccccc23)cc1,-10,9789,-1,3,11,13,7.7
COc1cccc(CN2CCN(C3CSCCSC3)CC2CCO)c1 (centres undefined),-19,4741,9,3,9,14,2.0
COc1ccc(C(c2nnnn2CS(=O)(=O)c2ccc(C)cc2)N2CCN(c3ncccn3)CC2)cc1 (centres undefined),2,3572,-6,0,0,5,3.0
CC(=NNC(=O)CNC(=O)c1ccc(Br)cc1)c1ccco1,/,/,1,/,-2,-9,-0.4
Cc1ccc(-c2nnn(CC(=O)NCC3CC3)n2)o1,-17,4021,2,1,8,10,5.6
CCNS(=O)(=O)c1ccc(OC)c(C(=O)NC2CCCCC2)c1,-29,3946,1,-3,2,-6,4.4
N#CCCSc1ncnc2c1oc1ccccc12,-14,18891*,-4,-5,8,13,9.2
Cc1ccccc1-c1nc(-c2ccc(NC(=O)c3ccc(Br)o3)cc2)no1,-45,8271,0,6,2,5,-2.0
Cc1nnc(OCc2nc3ccccc3n2C)c2ccccc12,-22,3694,6,-6,/,/,0.9
COC(=O)c1c(C(=O)OC)c(-c2ccc(F)cc2)n2c1CS(=O)(=O)C2,7,3944,1,-4,9,0,4.2
CC(C)C(OC(=O)c1nsc(Cl)c1Cl)C(=O)NC1CCCCC1 (centres undefined),-33,5895,6,-10,3,-4,8.2
COc1ccc(Oc2c(OC)cc([N+](=O)[O-])c3ncccc23)cc1,3,3678,4,/,7,16,2.2
CCOC(=O)c1[nH]c2ccc(OC)cc2c1NC(=S)N1CCN(c2ccc(F)cc2)CC1,-28,2669,4,7,2,0,3.5
CCc1cc2c(COC(=O)CCNS(=O)(=O)c3cccc(C(F)(F)F)c3)cc(=O)oc2cc1O,-19,/,4,/,4,0,11
Cc1nc2ccccn2c1C(=O)NCc1cccnc1,-17,10382,1,1,8,14,3.1
Cc1c(C=NCCOCc2ccccc2)cnn1C,-18,2869,-4,-6,-2,1,4.4
O=C1CSC(c2cn(-c3ccccc3)nc2-c2ccc3c(c2)OCCO3)N1CCN1CCOCC1 (centres undefined),-5,3349,-6,-3,1,10,-16
O=C(c1ccccc1)c1ccc2cc(O)ccc2c1,-18,3855,13,-4,7,4,-3.6
COc1ccc(NC(=O)Nc2cnccn2)cc1,-17,4471,8,3,-3,7,0.6
COc1ccc(N2CCN(C(=O)c3cn(Cc4ccccc4)nc3-c3cccnc3)CC2)cc1,-8,3149,1,/,0,-1,2.4
Cc1nc2ccccn2c1C(=O)N/N=C/c1ccc2c(c1)OCO2,-58,2440,/,-1,/,/,/
O=C(N/N=C/c1c[nH]c2ccccc12)C1COc2ccccc2O1 (centres undefined),-32,2463,/,5,/,/,/
Clc1cccc(OCc2nnc(-c3ccccc3Br)o2)c1,-18,3487,7,4,15,3,18
CC(OC(=O)CCOc1ccccc1)C(=O)Nc1ccc(Cl)cn1 (centres undefined),2,4964,4,-4,3,-15,4.7
Cc1ccc(Cn2c(SCC(=O)N/N=C/c3ccccc3OCC(=O)O)nc3ccccc32)cc1,-6,3117,/,-6,/,/,/
COc1cccc(CN2CCNC(=O)C2CC(=O)N(C)C2CCCCC2)c1OC (centres undefined),-25,6868,3,16,5,6,2.8
CCCCOCCCNC(=O)c1ccc2c(c1)OCO2,-24,7697,-4,-25,-4,3,6.8
CCN(CC)C(=O)c1ccc(NC(=O)CN2CCc3cc(OC)c(OC)cc3C2)cc1,-7,3411,-5,-3,-3,-3,-3.1
COc1cccc(-c2cc(C(=O)NC3CCCC3)c3ccccc3n2)c1,/,3642,4,1,-2,5,4.6
COc1cccc(C(=O)Cn2c(N3CCOCC3)nc3c2c(=O)n(C)c(=O)n3C)c1,-22,16198*,1,-14,5,5,3.4
CCOCCc1nnc(NC(=O)C2CCN(C(=O)c3ccco3)CC2)s1,-17,4352,0,0,2,-2,2.9
COc1ccc(N(CC(=O)NCC2CCCO2)C(=O)CCC(=O)Nc2nccs2)c(OC)c1 (centres undefined),-17,5233,10,0,4,2,-2.2
O=C1CCNc2cc3ccccc3cc21,-17,/,-22,-6,4,9,7.9
O=C(O)c1cccc2c1C(=O)c1cccc3snc-2c13,2,5111,10,-12,-9,8,5.1
Cc1cccc(N2CCN(C(=O)CSc3ccsc3[N+](=O)[O-])CC2C)c1 (centres undefined),-12,2007,-1,-12,-1,4,8.5
CCn1c(-c2ccco2)nc2ccccc21,-19,2934,7,-5,/,/,1.0
NCCCCC(=O)O,-9,5747,7,/,4,4,7.7
S=c1[nH]nc(-c2ccco2)n1N=Cc1ccccc1,/,/,-1,/,15,-2,13
CN1C(=O)C(C)(C)c2cc(S(=O)(=O)N3CCC(C(=O)NCc4ccccc4Cl)CC3)ccc21,-5,4179,9,9,1,3,-3.3
CN(C)S(=O)(=O)c1ccc(NC(=O)CSc2nnc(-c3ccco3)n2N)cc1,-5,2913,1,/,4,2,2.0
Brc1ccc(-c2csc(N/N=C/c3cccnc3)n2)cc1,-110,4309,/,6,/,/,/
Cc1nc(SCC(=O)Nc2cc(C)on2)c2c(=O)n(C)c(=O)n(C)c2n1,-23,5948,-6,1,5,9,-9.1
CC[C@@H]1C=C(C(=O)O)[C@H](c2ccc(Cl)c(Cl)c2)N1S(=O)(=O)c1ccc(C)cc1,-6,3601,26,/,0,3,21
CCCc1c(O)nc(SCCN(CCC)CCC)[nH]c1=O,-14,?,4,7,0,1,3.1
CCOC(=O)c1cnn(-c2cccc(Cl)c2)c1N,-14,16767*,10,-5,13,12,5.6
# Carrying on:
SMILES,PrP 5UTR inh,Autofluor counter,ugtP null kill,BJeLR lethal,Mtb hypoxia rep,Mtb hypoxia rep growth,Sa RN4220 lethal
CCCCC(=O)Nc1ccc(NC(=O)c2ccco2)cn1,-30,3374,7,0,11,6,-0.2
Cc1cc(NC(=O)c2ccccc2F)on1,-19,1911,-2,-6,15,-2,1.2
CSc1ncc(Cl)c(C(=O)Nc2cc(C)ccc2C)n1,/,4058,2,-1,-4,2,0.2
CCC(Sc1nc2cc3c(cc2c(=O)n1Cc1ccco1)OCO3)C(=O)Nc1ccccc1OC (centres undefined),-1,23027*,-4,-3,-3,-2,-0.3
CN(C(=O)COC(=O)c1ccc2c(c1)OCCO2)c1ccccc1,-12,3213,-3,-7,-7,1,3.9
Cc1cc(C)c(NC(=O)Cn2cnc3c(oc4ccccc43)c2=O)c(C)c1,26,4112,5,3,13,8,6.5
COc1cccc(NC(=O)COC(=O)Cc2ccc(Cl)cc2)c1,-37,3696,11,/,-1,10,1.8
CC(=O)c1c(NCc2ccccc2)nc(=O)n(-c2ccccc2)c1C,-6,8640,-1,5,0,2,-0.5
CSc1nc(-c2ccc(Cl)cc2)nn1C(=O)c1ccco1,-49,2473,5,2,3,17,15
CC(=O)N1CCC(N2CCCC(C(=O)c3cccc(Cl)c3)C2)CC1 (centres undefined),-15,3650,0,-1,12,10,2.4
Cc1cc(C)n(-c2ccc(C)c(Cl)c2)n1,-12,2707,2,2,5,-6,1.7
Cc1ccc(C(=O)Nc2ccc3c(c2)nc2n3CCSC2)cc1,-37,23988*,-11,1,21,10,3.3
COc1cccc(CNC(=O)CCCn2ncn3c(cc4occc43)c2=O)c1,-19,3967,14,-5,9,3,1.0
O=C(CSc1ccc2c(c1)OCCO2)Nc1ncc(Cl)cc1Cl,-28,9645,3,-7,-1,-2,1.7
NNC(=O)CN1C(c2ccccc2Br)=Nc2ccc(Br)cc2C1c1ccccc1 (centres undefined),-10,2338,-13,-1,9,3,4.0
COC(=O)c1ccccc1Oc1ccc(NC(=O)C(C)(C)CCl)cc1,-29,4449,12,-18,-7,7,7.5
Cc1cccc(C=NNC(=O)C[n+]2ccccc2)c1,/,/,10,/,2,2,0.5
Clc1ccc2c(NCc3ccccn3)ncnc2c1,-16,4809,1,5,/,/,0.0
CC(C)C(NC(=O)OCc1ccccc1)C(=O)OCC(=O)NCc1ccco1 (centres undefined),-13,4455,-2,4,/,/,-0.8
O=C(COC(=O)Cc1n[nH]c(=O)c2ccccc12)Nc1cccc(C(F)(F)F)c1,-25,4136,7,-12,4,3,-2.9

# Assay outcomes as filed in PubChem.
